From PubChem BioAssay
ugtP null kill – growth inhibition of ugtP-null S. aureus, primary screen, RN4220 ugtP deletion, OD600; AID 1259309, 2017; 16 h; some inactives read as strong as hits; hit rate 0.54% among 330,000; growth inhibition, % (no concentration beside the values);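 active = z-score under -3 and OD600 up to 0.15 on both plates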;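 also: plate controls were untreated wells for no effect and antibiotic for full effect; wells of about 80 µL received 100 nL stock; the first replicate is given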
BJeLR lethal – MLPCN primary cell-based screen for lethality selective to Ras in HRASV12 cells; BJeLR (HRASV12) viability, CellTiter-Glo ATP luminescence, 48 h; reference of the scale not given here; inhibition, % (concentration not given with the values); hit rate 0.17% among 300,000; AID 1554, 2009;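 active = replicate mean above 50%; inconclusive = above 50% but judged a plate artefact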;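 also: 50 nL library stock added to about 25 µL; numbers are from one replicate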
PrP UTR inh – inhibition of PrP 5' UTR reporter expression. cell-based PrP 5' UTR mRNA reporter, plate reader. inhibition, % (concentration not given with the values). hit rate 0.35% among 340,000. AID 488862, 2010;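 active = every replicate at 50% or more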;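 also: 0 = median of the neutral control wells; tested in H4 reporter cells; numbers are from one replicate; inactives centre near -14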
RN4220 kill – growth inhibition of S. aureus RN4220, primary screen, OD600 | 16 h | inhibition, % (concentration not given with the values) | hit rate 0.33% among 330,000 | AID 1259311, 2017;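 active = z-score of -3 or lower and OD600 up to 0.18 on both plates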;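 also: plate controls were untreated cells for no effect and reference antibiotic for full effect; stock transfer was 100 nL into about 80 µL; one replicate is shown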
Mtb hypoxia inh – PubChem AID 1159583. hit rate 0.1% among 300,000. fluorescence inhibition, % (test concentration not listed). M. tuberculosis hypoxia-regulated fluorescent reporter, fluorescence;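 active = 35 to 45% if threefold the growth effect, above 45% if 1.5-fold the growth effect; inactive = the rest, general growth blockers included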;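 also: wells of about 50 µL received 100 nL stock; 0% = vehicle wells and 100% = reference inhibitor wells; whole bacteria with a GFP reporter of the hypoxia response; strong numbers were not always called active; many hits fall short of the cut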
Autofluor counter – compound fluorescence in toxin protease inhibitor counterscreen. compound autofluorescence counterscreen, microsphere flow cytometry; active compounds read high. fluorescence intensity (no concentration beside the values). hit rate 3.1% among 360,000;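 active = at least 3 SD above the mean of all compounds, about 16000 in these data; inconclusive = too few beads counted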;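 also: 100 nL of 1 mM stock went into each well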
Mtb hypoxia inh growth – further read-out of Mtb hypoxia inh, marked with its call; growth inhibition, %; measured here: M. tuberculosis growth (absorbance);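 0% = vehicle and 100% = reference antibiotic; read after six days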
* = called active by the depositor; ? = inconclusive; . = not tested or not shown. Outcome played no part in choosing rows; overall some 4% were active at least once.

| canonical_smiles | BJeLR lethal | Mtb hypoxia inh growth | Autofluor counter | PrP UTR inh | ugtP null kill | Mtb hypoxia inh | RN4220 kill |
| --- | --- | --- | --- | --- | --- | --- | --- |
| CC(=O)N1N=C(c2ccccc2)OC1(C)CC(=O)Nc1ccccc1 (stereo not drawn) | -6 | 6 | 2093 | -15 | 1 | 1 | 4.6 |
| c1ccc(CCn2nnnc2C(c2cccs2)N2CCN(Cc3ccc4c(c3)OCO4)CC2)cc1 (stereo not drawn) | -1 | . | 5015 | -24 | 9 | . | -2.6 |
| COc1ccccc1-c1nnc(SCC(=O)N2CCOCC2)n1-c1ccccc1 | 7 | 13 | 3027 | -6 | 10 | 7 | 10 |
| Cc1ccnc(N2CCC(C(=O)Nc3ccc4c(c3)OCO4)CC2)n1 | 1 | 4 | 9998 | -15 | -1 | 19 | 2.5 |
| COc1cc(/C=N/NC(=O)c2cnccn2)ccc1O | 4 | . | 9536 | 6 | . | . | . |
| N#Cc1ccc2ccn(CC(=O)NC3CCCCC3)c2c1 | -4 | 4 | 16380* | -7 | 6 | 6 | 5.1 |
| Cc1nc2ccccn2c1C(=O)CSc1ccc(Cl)cc1Cl | 3 | 7 | 5409 | -15 | -9 | 8 | 4.4 |
| Cn1c(C(C#N)=NO)nc2ccccc21 | . | 4 | . | . | -10 | 5 | -7.6 |
| Cn1ccnc1SCC(=O)Nc1cc(S(=O)(=O)N2CCOCC2)ccc1Cl | 10 | 2 | 2428 | -3 | 3 | 20 | 4.1 |
| CCC1Nc2ncnc(N3CCN(c4ccccc4)CC3)c2N(Cc2ccc(C)cc2)C1=O (stereo not drawn) | 3 | 8 | 3555 | -18 | -25 | -14 | -1.8 |

Next part (two carried over from the part before).
| canonical_smiles | BJeLR lethal | Mtb hypoxia inh growth | Autofluor counter | PrP UTR inh | ugtP null kill | Mtb hypoxia inh | RN4220 kill |
| --- | --- | --- | --- | --- | --- | --- | --- |
| Cn1ccnc1SCC(=O)Nc1cc(S(=O)(=O)N2CCOCC2)ccc1Cl | 10 | 2 | 2428 | -3 | 3 | 20 | 4.1 |
| CCC1Nc2ncnc(N3CCN(c4ccccc4)CC3)c2N(Cc2ccc(C)cc2)C1=O (stereo not drawn) | 3 | 8 | 3555 | -18 | -25 | -14 | -1.8 |
| OC(c1ccccc1)C(O)C(c1ccccc1)N1CCCCC1 (stereo not drawn) | . | 8 | 3990 | -35 | 0 | 19 | 4.5 |
| COC(=O)c1ccc2c(C)c(C3(O)CCCCC3)[nH]c2c1 | . | 9 | 4115 | -44 | -18 | 12 | 8.2 |
| CC(=O)Nc1cc[n+](CC(=O)c2ccc(Cl)cc2)cc1 | 3 | 2 | . | -23 | 10 | -2 | 2.5 |
| N#Cc1c(NC(=O)COC(=O)C2CC3C=CC2C3)oc(-c2ccccc2)c1-c1ccccc1 (stereo not drawn) | 1 | 8 | 3163 | -32 | -7 | 6 | -17 |
| CCSc1cnn(-c2ccccc2)c(=O)c1SCC | 3 | 4 | 10919 | -20 | 10 | 10 | 3.7 |
| O=C1C(=O)N(CCN2CCOCC2)C(c2ccccn2)/C1=C(/O)c1ccc(F)cc1 (stereo not drawn) | 3 | 13 | 4737 | -20 | -3 | 19 | 3.7 |
| Cc1ccc(NC(=O)CN(C)C(=O)c2ccc(-n3cncn3)c([N+](=O)[O-])c2)cc1 | -3 | 5 | ? | -2 | 6 | 6 | 2.2 |
| CCC(C)NS(=O)(=O)c1ccc(NC(=O)C2CCN(C(=O)c3ccco3)CC2)cc1 (stereo not drawn) | 1 | 8 | 3445 | -20 | 4 | 13 | 5.4 |
| CCn1c(SCc2nc3ccccc3[nH]2)nnc1-c1ccccc1OC | -4 | . | 2344 | -3 | -2 | . | 1.7 |
| O=C(Nc1ccc(-c2csc(Nc3cccc(C(F)(F)F)c3)n2)cc1)c1ccccc1 | 10 | . | 3687 | -10 | . | . | . |

An excerpt from above in order of number of heavy atoms, lowest first.
| canonical_smiles | BJeLR lethal | Mtb hypoxia inh growth | Autofluor counter | PrP UTR inh | ugtP null kill | Mtb hypoxia inh | RN4220 kill |
| --- | --- | --- | --- | --- | --- | --- | --- |
| CCSc1cnn(-c2ccccc2)c(=O)c1SCC | 3 | 4 | 10919 | -20 | 10 | 10 | 3.7 |
| COC(=O)c1ccc2c(C)c(C3(O)CCCCC3)[nH]c2c1 | . | 9 | 4115 | -44 | -18 | 12 | 8.2 |
| Cc1ccc(NC(=O)CN(C)C(=O)c2ccc(-n3cncn3)c([N+](=O)[O-])c2)cc1 | -3 | 5 | ? | -2 | 6 | 6 | 2.2 |
| CCC(C)NS(=O)(=O)c1ccc(NC(=O)C2CCN(C(=O)c3ccco3)CC2)cc1 (stereo not drawn) | 1 | 8 | 3445 | -20 | 4 | 13 | 5.4 |
| O=C(Nc1ccc(-c2csc(Nc3cccc(C(F)(F)F)c3)n2)cc1)c1ccccc1 | 10 | . | 3687 | -10 | . | . | . |

(continued)
| canonical_smiles | BJeLR lethal | Mtb hypoxia inh growth | Autofluor counter | PrP UTR inh | ugtP null kill | Mtb hypoxia inh | RN4220 kill |
| --- | --- | --- | --- | --- | --- | --- | --- |
| O=C(c1cccc(F)c1)N1CCN(Cc2ccc3c(c2)OCO3)CC1 | -7 | 6 | 4263 | -11 | 10 | 19 | 2.8 |
| Cc1c(C=C2C(=O)N(C)C(=S)N(C)C2=O)c2ccccc2n1CC(=O)NCC1CCCO1 (stereo not drawn) | . | 17 | 6556 | 12 | -6 | 0 | 3.0 |
| Nc1cc(C(=O)O)ccc1N1CCCCCC1 | -1 | 0 | 4405 | -18 | 4 | 0 | 3.8 |
| COC(=O)Nc1ccc(S(=O)(=O)N2CCCC(C(=O)N3CC(C)OC(C)C3)C2)cc1 (stereo not drawn) | 2 | 11 | 4395 | -27 | 1 | -7 | 1.5 |
| O=C(COC(=O)/C=C/c1ccco1)NC1CCCCC1 | . | 9 | 3841 | -15 | 1 | 5 | -0.1 |
| COc1ccc(C(CNC(=O)C(C)(C)Oc2ccc(Cl)cc2)N2CCCCC2)cc1 (stereo not drawn) | -4 | -2 | 5091 | -22 | -1 | 11 | -1.0 |
| Cc1cccc(C(=O)NCCC(=O)Nc2ccc(F)c([N+](=O)[O-])c2)c1 | 1 | 3 | 3076 | -5 | 2 | 18 | 1.6 |
| COc1ccc(NC(=S)N(CCN2CCOCC2)C2CCN(C(C)=O)CC2)cc1Cl | 9 | -4 | 3793 | -16 | 3 | 6 | 2.7 |
| O=C(Cc1ccccc1F)Nc1ccccc1N1CCCC1 | 5 | 19 | 5442 | -15 | 7 | 17 | 3.9 |
| COc1ccc(NC(=O)c2ccc3c(c2)NC(=O)CS3)cc1S(=O)(=O)Nc1ccc(Br)cc1 | -4 | 0 | 2257 | -24 | -6 | 3 | -12 |

The list goes on.
| canonical_smiles | BJeLR lethal | Mtb hypoxia inh growth | Autofluor counter | PrP UTR inh | ugtP null kill | Mtb hypoxia inh | RN4220 kill |
| --- | --- | --- | --- | --- | --- | --- | --- |
| Brc1ccc2nc(CSc3ncn[nH]3)cn2c1 | -9 | -6 | 2259 | -41 | -4 | -8 | 2.6 |
| OCCn1c(-c2ccc3c(c2)OCO3)csc1=Nc1ccccc1 | 8 | 7 | 3789 | -39 | -12 | 3 | -1.6 |
| COc1ccc(C2=Nn3c(nnc3C3CCCCC3)SC2)cc1OC | 7 | 8 | 24718* | 35 | -14 | 11 | 11 |
| O=C(Cn1c(=O)oc2ccccc21)Nc1n[nH]c(=S)s1 | 9 | 8 | 4897 | -20 | 5 | 14 | 4.0 |
| COc1ccccc1OCC(=O)NCCSCc1ccccc1Cl | 0 | 14 | 2186 | -11 | -10 | 2 | -0.7 |
| COc1ccc(C=NS(=O)(=O)c2ccccc2)cc1OC | . | 0 | . | . | -2 | 9 | 8.1 |
| CCOC(=O)C1=C(N)Oc2cc(O)ccc2C1c1ccc(Br)cc1 (stereo not drawn) | -8 | 10 | 3515 | -26 | 1 | 15 | -13 |
| Cc1c(NC(=O)/C(C#N)=C/c2ccc(-c3cccc(Cl)c3)o2)c(=O)n(-c2ccccc2)n1C | 8 | 5 | 2088 | -16 | 20 | 4 | 3.4 |
| O=C(CSc1nnc(-c2ccccc2)n1-c1ccccc1)NCc1ccco1 | 2 | 4 | 3638 | 2 | 5 | 6 | 2.8 |
| O=C1CN(C(=O)COC(=O)CCC(=O)c2ccc(Cl)cc2)c2ccccc2N1 | . | 10 | 3731 | -39 | 11 | 7 | 5.4 |

More entries.
| canonical_smiles | BJeLR lethal | Mtb hypoxia inh growth | Autofluor counter | PrP UTR inh | ugtP null kill | Mtb hypoxia inh | RN4220 kill |
| --- | --- | --- | --- | --- | --- | --- | --- |
| CC(NC(=O)c1ccccc1NS(=O)(=O)c1ccc(CCC(=O)O)cc1)c1ccccc1 (stereo not drawn) | 5 | 13 | 5671 | -16 | 6 | 12 | 0.5 |
| CC(C)Cn1c(N)c(C(=O)COC(=O)CCNS(=O)(=O)c2ccccc2)c(=O)n(C)c1=O | 12 | 10 | 6569 | -8 | 3 | -3 | 5.0 |
| CCOC(=O)C1CCN(C(=O)COC(=O)CCOc2ccc(C)cc2)CC1 | -5 | . | 3047 | -16 | 12 | . | 2.4 |
| O=C(c1n[nH]c(=O)c2ccccc12)N1CCN(c2ccc(F)cc2)CC1 | 1 | . | 3268 | 6 | 7 | . | 1.4 |
| N=c1ncn(CC(O)CO)c2nc(N3CCOCC3)[nH]c12 (stereo not drawn) | -1 | . | 5421 | -16 | -3 | . | -1.0 |
| O=C(NCc1ccccc1)c1ccc(C(=O)N(C2CCCCC2)C2CCCCC2)cc1 | -9 | 1 | 11260 | . | -13 | 0 | -4.6 |
| COc1ccc(C(=O)COC(=O)CN2C(=O)C3C4CCC(C4)C3C2=O)cc1 (stereo not drawn) | -3 | 1 | 5877 | -12 | 4 | 2 | 2.5 |
| CC(C)COC(=O)N1CCCC1C(=O)Nc1nccs1 (stereo not drawn) | 5 | 1 | 2479 | -3 | 7 | 6 | -1.7 |
| COc1ccccc1/C=C/c1nc(S(=O)(=O)c2ccccc2)c(N2CCC(C(N)=O)CC2)o1 | 10 | 6 | 5611 | -2 | -5 | -6 | -5.3 |
| CCC(C)Sc1ccc(C2N[C@@](Cc3ccccc3)(C(=O)OC)C3C(=O)N(CC)C(=O)C23)cc1 (stereo partly drawn) | . | 6 | . | . | -16 | 18 | -0.5 |

Entries of single compounds as entered above.
Results for CCOC(=O)C1CCN(C(=O)COC(=O)CCOc2ccc(C)cc2)CC1 → BJeLR lethal: -5; Mtb hypoxia inh growth: .; Autofluor counter: 3047; PrP UTR inh: -16; ugtP null kill: 12; Mtb hypoxia inh: .; RN4220 kill: 2.4
Results for CCC(C)Sc1ccc(C2N[C@@](Cc3ccccc3)(C(=O)OC)C3C(=O)N(CC)C(=O)C23)cc1 (stereo partly drawn) → BJeLR lethal: .; Mtb hypoxia inh growth: 6; Autofluor counter: .; PrP UTR inh: .; ugtP null kill: -16; Mtb hypoxia inh: 18; RN4220 kill: -0.5

Remaining list, next part:
| canonical_smiles | BJeLR lethal | Mtb hypoxia inh growth | Autofluor counter | PrP UTR inh | ugtP null kill | Mtb hypoxia inh | RN4220 kill |
| --- | --- | --- | --- | --- | --- | --- | --- |
| CCC(C)C(C)=NNC(=O)CSc1nc2ccccc2[nH]1 (stereo not drawn) | . | -2 | . | . | -4 | 2 | 1.7 |
| CC(Sc1nc2ccccc2c(=O)n1C)C(=O)NC1CCCCC1C (stereo not drawn) | 10 | -6 | 4331 | -8 | 11 | -5 | 5.0 |
| CCn1cc(C(=O)NC2CCCCCC2)c(=O)c2ccc(C)nc21 | -14 | -3 | . | 10 | 1 | 5 | 2.1 |
| CSCC[C@H](NC(=O)[C@H]1CC[C@H](CNC(=O)[C@@H]2CCCN2)CC1)C(=O)O | -5 | . | 3960 | -14 | . | . | . |
| CC1(c2cccc3ccccc23)NC(=O)N(CC(=O)NC2CCS(=O)(=O)C2)C1=O (stereo not drawn) | -6 | -2 | 1995 | -13 | 1 | -6 | -0.6 |
| S=c1[nH]nc(-c2cc(-c3ccsc3)n[nH]2)n1-c1cccc2ccccc12 | -4 | 7 | 2352 | -8 | -26 | 3 | -14 |
